Screening data (PubChem BioAssay)
NPYLR7 agonist – mosquito NPYLR7 agonism | HEK293T NPYLR7/Galpha15, GCaMP6s calcium fluorescence | activation, % at 10 µM | hit rate 0.15% among 270,000 | AID 1259423; in the data active means activation above about 40%;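 further: 0% = vehicle and 100% = reference agonist at the receptor; some compounds past the cut are filed as inactive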
NPYLR7 agonist max-min – recorded beside NPYLR7 agonist, whose call it bears; activation, %; measured here: Max-Min RFU normalised activation; some inactives read as strong as hits;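 span of the calcium signal over five minutes; 0% = vehicle and 100% = native peptide agonist; compound fluorescence can raise it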
Active calls of the source: *; & = joins results of further samples.

Fields: NPYLR7 agonist, NPYLR7 agonist max-min
- CCOC(=O)N1CCC(C(=O)Nc2cc3c(cc2C(C)=O)OCO3)CC1
  1, 1
- Cc1ccc2nc(C)c(NC(=O)Cc3ccc(Cl)cc3)c(=O)n2c1
  5, 2
- Cn1c(SCC(=O)Nc2cccc(I)c2)n[nH]c1=O
  7, 0
- COc1cc(CCC(C)NCc2c(C)noc2C)ccc1O (stereo not drawn)
  5, 5
- CCOc1ccc(-c2cc(=O)n(CC(=O)NC3CC3)cn2)cc1
  9, 0
- CC1(C(=O)Nc2nccs2)CCN1C(=O)Cc1cccs1 (stereo not drawn)
  -3, 0
- CCOC(=O)N1CCC(NC(=O)c2cc(=O)c(OCc3cccc(OC)c3)cn2C)CC1
  3, 5
- COc1ccc(OC)c(S(=O)(=O)Nc2ccc(Br)cc2C(=O)NCc2ccccc2)c1
  17, 13
- Cc1ccc(S(=O)(=O)NC2CC(=O)N(C3CCCCCC3)C2)s1 (stereo not drawn)
  5, 3
- CCOC(=O)C1(C)CCCCN1C(=O)c1ccc(C)c(F)c1 (stereo not drawn)
  0, -1
- Cc1cc(C)n(-c2cccc(C(=O)N3CC[C@H](O)C[C@@H]3C(=O)O)c2)n1
  12, -2
- COCc1c(Br)c(C)nc(OCC(=O)N/N=C\c2cc(Cl)cc(Cl)c2O)c1C#N
  -3, 3
- CC1CC(C)CN(Cc2ccc(CNC(=O)C3CC3)cc2)C1 (stereo not drawn)
  4, 2
- O=C(O)Cc1cc(-c2ccccc2)on1
  0, -2
- COc1ccc(C(=O)N2C(C(=O)NCc3ccccn3)COC23CCN(C(=O)CC(C)(C)C)CC3)cc1 (stereo not drawn)
  1, 17
- CCC1c2ccsc2CCN1S(=O)(=O)c1cccc(Br)c1 (stereo not drawn)
  6, 3
- NC(=O)CC1(NC(=O)CSCc2ccc(Cl)cc2)CCOCC1
  13, 12
- O=C(NC(=S)NCCNC(=S)NC(=O)c1ccco1)c1ccco1
  -3, -4
- COc1cc(OC)nc(Nc2nc(C(N)Cc3ccccc3)cs2)n1 (stereo not drawn)
  -3, -10
- COc1ccc(C(=S)/C=C2/SC=C(C(=O)O)S2)cc1
  7, 6
- COc1ccc(OC)c(-c2nc3cc(C)cc(C)n3c2NC(C)(C)CC(C)(C)C)c1
  7, 8
- Cc1cc(C)cc(NC(=O)CSc2ccc3nnc(-c4cccnc4)n3n2)c1
  3, 1
- CCc1nc2n(n1)C(=O)C(C(c1cccc(C)c1)N1CCC3(CC1)OCCO3)S2 (stereo not drawn)
  -3, -6
- Cc1cccc(Nc2ccnc(Nc3cccc(C(=O)N4CC=CCC4)c3)n2)c1
  7, 6
- COc1ccc(CN(CC(C)C)C(=O)c2ccc(F)cc2)cc1OS(=O)(=O)c1cccc(C(F)(F)F)c1
  -8, -13
- CC1C(=O)N(c2cccc(F)c2)CCN1C(=O)CCc1ccccc1 (stereo not drawn)
  -3, -1
- O=C(NC1CCN(c2ccccc2C(=O)N2CCN(c3ccccn3)CC2)CC1)c1ccc(F)cc1F
  -4, 5
- CCCC(C)c1nc(N2CCCN(C(=O)C3CCC3)CC2)c2cnn(-c3ccccc3)c2n1 (stereo not drawn)
  -4, -4
- O=C(Nc1nnc(Cc2ccc3c(c2)OCO3)o1)c1ccc(Br)s1
  5, 1
- CCc1csc(CNC(=O)Cn2cc(Cl)c(C)n2)n1
  22, 17
- COc1ccc(NC(=O)CNC(=O)CN(C(=O)c2ccccc2OC)C2CCCCC2)cc1
  -5, 7
- Cc1onc(-c2c(Cl)cccc2Cl)c1C(=O)Nc1ccc(OCc2ccccc2)cc1
  4, 4
- CC(C)c1ccc(Oc2cnn(-c3cccc(Cl)c3)c(=O)c2Nc2cccc(C(=O)N3CCCCC3)c2)cc1
  9, 14
- COc1ccc(C(=O)NCc2cccc(-c3ncc(-c4cccc(OC)c4)[nH]3)c2)cc1
  -3, -12
- CN1CC2N(C(=O)C3(c4ccc(Cl)cc4)CCCC3)C3CCC2(CC3)OC1=O (stereo not drawn)
  23, 24
- CCCc1ccc(-c2ccc(-c3noc(-c4ccc(C)cc4)n3)cc2)cc1
  -3, -8
- Cc1cccc(N2C(=O)/C(=C/c3ccc(-c4ccc(Cl)c(Cl)c4)o3)C=C2c2ccccc2)c1
  1, 7
- Cc1ccc(CN(Cc2ccc3c(c2)OCO3)C(=O)CN(CCN2CCOCC2)S(=O)(=O)c2ccc(F)cc2)o1
  -5, -5
- O=[N+]([O-])c1ccc(N/N=C\c2ccccc2OC(F)F)c(S(=O)(=O)N2CCOCC2)c1
  -5, -7
- CCSc1nnc2ccc(-c3ccc(OC)cc3)nn12
  -14, -8
- CCN(CC)c1ccc2cc(-c3nnc(-c4ccc(OC)cc4)o3)c(=O)oc2c1
  12, 2
- O=C(Nc1ccc(Cl)c(-c2nc3ccccc3o2)c1)c1ccc2ccccc2c1
  -2, -10
- COc1cccc([C@@H](C)Nc2nc3nonc3nc2N(C)C)c1
  3&13, 2&14
- C=CCN=c1scc(-c2ccc3c(c2)OCCO3)n1N=Cc1ccc(SC)cc1
  2, 5
- CC1(Cc2ccccc2OC(F)(F)F)C(=O)Nc2cccc(Cl)c21 (stereo not drawn)
  2, 2
- O=C(c1ccc(Br)cc1)N1CCCC(OCc2cccc(Cl)c2)C1 (stereo not drawn)
  11, 15
- CCCCC(O)CN(CCOC)Cc1c(C)nn(-c2ccc(Cl)cc2)c1Oc1cccc(F)c1 (stereo not drawn)
  11, 14
- O=C1O/C(=C/Br)CCC1c1cccc2ccccc12 (stereo not drawn)
  3, -5
- O=c1sn(-c2cccc3ccccc23)c(=O)n1Cc1ccccc1
  4, -4
- O=C(NCC1CCCO1)c1cccnc1N1CCN(S(=O)(=O)c2ccc(C(F)(F)F)cc2)CC1 (stereo not drawn)
  23, 17

As entered above.
Under NPYLR7 agonist, `CCCCC(O)CN(CCOC)Cc1c(C)nn(-c2ccc(Cl)cc2)c1Oc1cccc(F)c1` (stereo not drawn) is entered as 11
Under NPYLR7 agonist max-min, `O=C(Nc1ccc(Cl)c(-c2nc3ccccc3o2)c1)c1ccc2ccccc2c1` is entered as -10

Further entries
Fields: NPYLR7 agonist, NPYLR7 agonist max-min
- CCOc1ccc(/C=C(\NC(=O)c2ccccc2)C(=O)N2CCN(C)CC2)cc1
  8, 8
- Cc1csc(NC(=O)CSc2nc3c(cnn3CCO)c(=O)[nH]2)n1
  3, 3
- COC(CN=Cc1c(O)n(C)c(=O)n(C)c1=O)OC
  -6, -12
- CCNC(=O)N1CCN(c2cc(Oc3ccc(Cl)c(C)c3)ncn2)CC1
  -11, -4
- Cc1c(CN(C)C(=O)CN2C(=O)NC(=O)C2(C)C)cnn1C
  4, 2
- CCOCCOc1nc(-c2ccc3c(c2)OCO3)n(-c2ccc(NC(=O)c3ccco3)cc2)n1
  19, 26
- COc1cccc(OC)c1C(=O)Nc1c2c(nn1-c1cccc(C)c1C)CS(=O)C2 (stereo not drawn)
  1, -2
- COc1ccc(OC)c2sc(N(Cc3cccnc3)C(=O)C3COc4ccccc4O3)nc12 (stereo not drawn)
  -3, -3
- O=c1[nH]c(=O)c2nc3ccccc3nc2[nH]1
  4&3, 4&-6
- CCCCN(C=O)c1c(CC)nc2ccc(C(=O)N3CCN(S(=O)(=O)CC)CC3)cn12
  13, 4
- O=C(CCC(=O)N1CCc2ccccc2C1)NCCc1cccs1
  -4, -9
- CCOC(=O)c1sc2nc(C(C)Sc3nc(C)cs3)[nH]c(=O)c2c1C (stereo not drawn)
  2, 4
- C=CCn1c(C)cc(C(=O)CN2C(=O)NC(C)(C3CC3)C2=O)c1C (stereo not drawn)
  11, 10
- CN(CC(=O)N1CCN(C(=O)C2CC2)CC1)S(=O)(=O)c1ccc(Cl)s1
  2, -4
- Fc1ccc(NC(=S)NC2CCCCC2)c(F)c1F
  5, 3
- CCCCC(=O)Nc1ccc(C2SCC(=O)N2c2ccc3c(c2)OCCO3)cc1 (stereo not drawn)
  -2, 6
- CCn1c(C2CCCN(c3cncc(C(=O)N4CCCC4)n3)C2)n[nH]c1=O (stereo not drawn)
  6, 6
- Cc1cc(OCC2CN(C(=O)C(c3ccccc3)C(C)C)CCO2)ccc1Cl (stereo not drawn)
  10, 4
- CCN(CC)c1ccc2c(c1)OC(=O)N(c1ccc(Cl)c(Cl)c1)P2(=O)N1CCOCC1 (stereo not drawn)
  0, 0
- O=S(=O)(c1ccc2c(c1)CCC2)N1CCCC1c1ccc2c(c1)OCCO2 (stereo not drawn)
  8, 15
- CCn1ccnc1CNC(=O)c1ccc(C(C)N2CCCCC2)o1 (stereo not drawn)
  4, -2
- COc1ccc(Cl)cc1N1CCN(Cc2cccc(C)c2)C(C)C1=O (stereo not drawn)
  -4, -2
- O=C1CSC(=Nc2ccccc2)N1c1ccccc1
  3, 0
- Cc1cccc(N(CCOC(=O)c2ccccc2Br)C2=NS(=O)(=O)c3ccccc32)c1
  6, 3
- CNc1cncc(-c2cccc(N)c2)n1
  2, -2
- Cc1ccc(C(=O)N(Cc2cccc(OS(=O)(=O)c3cccc(C(F)(F)F)c3)c2)Cc2ccco2)cc1[N+](=O)[O-]
  -10, -14
- Cc1ccccc1NC(=O)c1c(NC(=O)c2ccccc2Cl)sc2c1CCCC2
  0, 0
- Cc1ccn(-c2ccc3cc(-c4ccccc4)c(=O)oc3c2)n1
  0, -2
- CC(NC(=O)c1nn(-c2ccc(Cl)cc2)c(=O)n(Cc2cccnc2)c1=O)c1ccccc1 (stereo not drawn)
  10, 16
- COCc1cn(C2CCN(c3nccc4ccccc34)CC2)nn1
  -4, -6
- C=C1C[C@]23CC[C@H]4C(CO)(CO)C[C@@H](O)C[C@@]4(C)[C@@H]2CC[C@H]1C3
  1, 0
- COc1ccccc1Oc1cnc(N)nc1-c1ccc(OCc2ccccc2F)cc1O
  1, -3
- CCN(Cc1csc(COc2cccc(C)c2C)n1)C(=O)Nc1ccc(C)cc1
  -1, 11
- CC(=O)NC(CC(=O)N1CCCCC1C)c1ccccc1 (stereo not drawn)
  3, 3
- COc1cc2c(cc1OC)C1CN(C(=S)Nc3ccc(OC(F)F)cc3)CC(=O)N1CC2 (stereo not drawn)
  7, 4
- Cc1ccccc1C1=NOC(CNCc2cccc(F)c2)C1 (stereo not drawn)
  -4, -11
- CC1(C)[C@H]2CC[C@]1(CS(=O)(=O)NCc1ccccn1)C(=O)C2
  -1, 1
- CC(CCc1ccccc1)NC(=O)c1cc(-c2ccccc2Cl)nc2cc(-c3ccccc3)nn12 (stereo not drawn)
  17, 19
- CN(C)c1nc(N)nc(-c2sc3ncccc3c2O)n1
  9, 7
- Cc1ccc(Cl)cc1N1C(=O)C2C3C=CC(C3)C2C1=O (stereo not drawn)
  -10, -16
- CNCCOc1ccc(C)cc1-c1ccc2c(c1)OCO2
  -1, 10
- COc1ccc(CCN(C)c2cc(-c3ccccc3)nc(SCc3cccc(C(=O)NCCc4ccccn4)c3)n2)cc1OC
  4, 6
- CC(C)N(C(=O)CN1C(=O)NC2(CCCCCC2)C1=O)C(C)C
  1, 8
- CN(CC(=O)Nc1cccc(F)c1)C(=O)CC1CC2CCC1C2 (stereo not drawn)
  1, 0
- CCCCOC(=O)c1ccccc1NC(=O)N[C@@H](Cc1ccccc1)C(=O)N1CCC(C(=O)Nc2ccc(OC)cc2)CC1
  -1, 16
- c1ccc(Oc2ccccc2-c2cnc3ccc(NCCc4ccccn4)nn23)cc1
  -1, -5
- Cc1cc(C(=O)CSc2ncnc3sccc23)c(C)n1C(C)C
  1, 3
- CC(c1ccco1)N(C)Cc1cccc(C(=O)Nc2nccn2C)c1 (stereo not drawn)
  13, -5
- CC(C)CN(Cc1cccc(OS(=O)(=O)c2cccc(C(F)(F)F)c2)c1)C(=O)C1CCCCC1
  -12, -15
- O=C(C=CN(C1CCCCC1)C1CCCCC1)C(F)(F)F
  -2, -3

Pulled by structure from the list above, seven records:
Fields: NPYLR7 agonist, NPYLR7 agonist max-min
- COc1ccc(NC(=O)CNC(=O)CN(C(=O)c2ccccc2OC)C2CCCCC2)cc1
  -5, 7
- Cc1ccc2nc(C)c(NC(=O)Cc3ccc(Cl)cc3)c(=O)n2c1
  5, 2
- Cc1ccn(-c2ccc3cc(-c4ccccc4)c(=O)oc3c2)n1
  0, -2
- CCC1c2ccsc2CCN1S(=O)(=O)c1cccc(Br)c1 (stereo not drawn)
  6, 3
- Cc1ccccc1C1=NOC(CNCc2cccc(F)c2)C1 (stereo not drawn)
  -4, -11
- Fc1ccc(NC(=S)NC2CCCCC2)c(F)c1F
  5, 3
- O=C1O/C(=C/Br)CCC1c1cccc2ccccc12 (stereo not drawn)
  3, -5

Going on with the list.
Fields: NPYLR7 agonist, NPYLR7 agonist max-min
- c1ccc(N=c2scc(-c3cccs3)n2-c2ccccc2)cc1
  -4, -15
- COc1ccc(CN(C)CC2CCCCO2)c(OC)c1OC (stereo not drawn)
  6, 3
- COc1cccc(C(=O)Nc2c3c(nn2-c2nc4ccccc4s2)CCC3)c1OC
  6, 3
- c1ccc(-n2nnnc2SCc2nc3ccccc3[nH]2)cc1
  -2, -5
- COc1cccc(OC)c1OCc1nc(CN(C(=O)c2cccs2)C2CC2)cs1
  2, 13
- CC1CCc2nc(NC(=O)CCN3C(=O)NC4(CCCC4)C3=O)sc2C1 (stereo not drawn)
  8, 11
- COC(=O)c1sccc1NC(=O)c1oc2ccccc2c1C
  28, 23
- CCOC(=O)N/N=C1/CC(C(=O)OC)CS1 (stereo not drawn)
  -1, 0
- CN(C)C(=O)c1ccc2c(c1)N(C)C(CC(=O)NCc1ccno1)CO2 (stereo not drawn)
  6, 2

Only part of the results is shown; count on the stated rates, not on these rows.
